Screening data: PubChem, National Center for Advancing Translational Sciences (NCATS)
PINK1 expr mod – modulators of PINK1 expression. PINK1 immunofluorescence, high-content cytometry, 24 h. Potency, µM (series often up to 76.6 µM), without a hit: at the highest dose activation (PINK1 increase), hits mostly activators. 410,000 tested, 0.2% active; active = well fitted activation curve with a large enough effect; inconclusive = small, poorly fitted or top-dose-only effect; inactive = flat fitted curve, though single readings scatter; cell line not stated here;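 further: potency means the concentration at half of the fitted maximal effect; % of control where 0% means no effect; nearly all actives have a fitted effect of over 65% in size; a mitochondrial uncoupler was the plate control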
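PINK1 protein level read as immunofluorescence by microplate cytometer in a fixed, stained stable cell line after 24 h exposure to five compound concentrations, with CCCP as control.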
TRPML1 blocker – human mucolipin-1 channel inhibition. Q9GZU1. TRPML1-inducible cells, Ca2+ dye fluorescence, FDSS; active compounds read low; inhibition of EC80 agonist-evoked calcium signal. activity change, negative = inhibition, % (no concentration beside the values). 390,000 tested, 0.02% active. AID 624415; in the data active means activity change below about -50%; inconclusive means about -30% to -50%; inactive means above about -30%;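 further: stimulus is agonist 54-4 at its EC80 concentration; on the % scale 0 is the no-effect control and ±100 the full control effect; compound concentration not given in the record; the text of the record puts the active cut at -80%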
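Tet-induced TRPML1-DL cells loaded with Ca8 no-wash calcium dye were read kinetically on FDSS. Compound addition was followed by EC80 agonist 54-4 (4 uM final); inhibition was read over 110 s.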
TRPML1 ag – agonists of human TRPML1 channel | 410,000 tested, 0.12% active | activation, % (test concentration not listed) | Q9GZU1 | TRPML1-expressing cells, Ca2+ dye fluorescence, FDSS; host cell line not named in the record; reference of the full effect not given here | AID 624414; in the data active = activation above about 50%; inconclusive = about 30% to 50%; inactive = below about 30%; further: 0% is about no effect; the text of the record puts the active cut at 80%
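Tetracycline-induced TRPML1-DL cells are seeded and incubated overnight before loading with a no-wash Ca2+ dye and quencher. Agonist activity is taken from the 110 s fluorescence read following compound pin-transfer on an FDSS, before EC80 54-4 challenge.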
D2 ag – activates the human D2 dopamine receptor. activation, % (test concentration not listed). P14416. AID 624465. DiscoveRx PathHunter D2 beta-arrestin, luminescence, 90 min; 100% = 57 uM dopamine signal. 360,000 tested, 0.084% active; in the data active = activation above about 40%; inconclusive = about 15% to 40%; inactive = below about 15%; further: compound concentration not given in the record; the text of the record calls up to 30% inactive
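DiscoveRx PathHunter D2 beta-arrestin cells (2,100/well) attached overnight, then compound-stimulated 90 min at 37 C in HBSS/10 mM HEPES/0.1% Tween-20 buffer; beta-galactosidase complementation read by luminescence after 1 h at ambient temperature. Dopamine 57 uM final (EC100) as control.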
Six1-Eya2 blk – blocks human Six1 binding to Eya2 | activity change, % (no concentration beside the values) | 360,000 tested, 0.56% active | AlphaScreen GST-Six1/His-Eya2 binding, biochemical; active compounds read low; control for the full effect not named in the record | AID 651725; in the data active = activity change below about -65%; inconclusive = about -30% to -65%; inactive = above about -30%; further: on the % scale 0 is the no-effect control and ±100 the full control effect
Target sequence (O00167 whole entry, looked up): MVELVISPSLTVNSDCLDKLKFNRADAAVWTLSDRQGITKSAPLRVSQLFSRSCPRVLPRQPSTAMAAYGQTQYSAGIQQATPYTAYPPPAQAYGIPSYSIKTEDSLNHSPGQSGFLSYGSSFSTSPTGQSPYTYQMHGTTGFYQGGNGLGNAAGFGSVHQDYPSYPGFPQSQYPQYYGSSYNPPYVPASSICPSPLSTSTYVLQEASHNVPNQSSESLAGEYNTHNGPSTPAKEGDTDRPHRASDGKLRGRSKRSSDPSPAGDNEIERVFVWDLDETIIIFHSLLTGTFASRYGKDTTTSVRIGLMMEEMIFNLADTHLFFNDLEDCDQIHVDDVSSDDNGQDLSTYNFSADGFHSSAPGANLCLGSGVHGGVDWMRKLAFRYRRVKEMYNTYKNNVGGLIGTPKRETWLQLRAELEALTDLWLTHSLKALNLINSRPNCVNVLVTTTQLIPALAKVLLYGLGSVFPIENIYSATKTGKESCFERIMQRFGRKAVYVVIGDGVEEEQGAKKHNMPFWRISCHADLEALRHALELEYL
Target sequence (Q15475 whole entry, looked up): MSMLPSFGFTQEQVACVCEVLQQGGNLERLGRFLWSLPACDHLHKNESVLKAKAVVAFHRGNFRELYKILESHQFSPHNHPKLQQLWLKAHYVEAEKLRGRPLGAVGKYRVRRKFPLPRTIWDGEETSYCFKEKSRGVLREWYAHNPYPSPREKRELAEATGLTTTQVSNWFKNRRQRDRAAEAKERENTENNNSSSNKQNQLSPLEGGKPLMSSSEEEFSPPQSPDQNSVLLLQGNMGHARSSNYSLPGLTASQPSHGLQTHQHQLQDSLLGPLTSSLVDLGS
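GST-Six1 + His-Eya2 (5X stock: 250/500 nM); Tris pH 8.0, 300 mM NaCl, 0.05% BSA, 0.02% Tween 20; GSH donor/Ni acceptor beads; 1 h 37 °C dark; AlphaScreen readout.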
CtBP-E1A blk – CtBP/E1A binding inhibition | activity change, % (test concentration not listed) | 340,000 tested, 0.49% active | AlphaScreen GST-E1A/His-CtBP binding, 1536-well; active compounds read low; control for the full effect not named in the record; in the data active means activity change below about -65%; inconclusive means about -30% to -65%; inactive means above about -30%; further: on the % scale 0 is the no-effect control and ±100 the full control effect
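Protein mix (5X: 125 nM each GST-E1A, His-CtBP) was incubated with pinned compound 2 h at 37 deg C in dark, in 50 mM Tris pH 8.0 buffer with 300 mM NaCl. Glutathione donor and nickel acceptor beads followed; AlphaScreen signal read after 1 h.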
Starred values were filed as active, the others as inactive; ? = inconclusive; nt = not tested or not shown; [ ] = another dose, or the depositor's remark.

smiles	D2 ag	TRPML1 ag	PINK1 expr mod	CtBP-E1A blk	Six1-Eya2 blk	TRPML1 blocker
CC(C)CCNC(=O)c1ccc(Cn2c(SCC(=O)NC(C)C)nc3ccccc3c2=O)cc1	nt	1.3	-4.0%	nt	nt	-14
NC(=NCCc1c[nH]c2ccccc12)NC(=O)c1ccc(Cl)cc1	-0.2	1.5	0.9%	-11	-5	1
COc1ccccc1OCCCC(=O)NCc1ccco1	-4.6	-1.4	1.5%	0	25	-4
COc1cc(/C=C/C(=O)OCC(=O)NCCCc2ccccc2)cc(OC)c1OC	-4.4	2.2	1.1%	-1	0	38
Cc1cc(C)cc(NC(=O)C2CCCC2)c1	-2.6	-0.6	3.1%[38.3 µM]	1	0	51
S=C(NCc1ccco1)Nc1cccc(Cl)c1Cl	2.3	1.8	0.3%	-3	-9	-12
COc1ccc(C(=O)CC(=O)C(=O)Nc2cccc([N+](=O)[O-])c2C)cc1	1.4	0.6	8.0%	-9	-3	-11
Cc1occc1C(=O)N1CCCC(CCC(=O)NCc2ccc(F)c(F)c2)C1 (configuration not stated)	-1.8	-0.2	-0.7%	9	-23	21
O=C1c2ccccc2C(=O)N1CCC(=O)N1CCc2ccccc21	-3.4	-0.2	6.9%[38.3 µM]	2	-1	6
CCOC(=O)Cc1c(C)nc2c(-c3ccccc3OC)c(C)nn2c1C	-4.3	0.1	1.5%	0	6	15
O=C(COC(=O)c1cccc(NS(=O)(=O)c2ccc(F)c(F)c2)c1)NC(=O)NC1CCCCC1	5.9	2.7	?	-3	-12	-4
c1ccc(-c2nnc(OCCN3CCOCC3)c3ccccc23)cc1	-3.1	-0.3	-0.8%	1	-8	-10
O=C1CC(N2CCN(c3ccccc3)CC2)C(=O)N1c1ccc2c(c1)OCO2 (configuration not stated)	1.7	0.0	0.9%	-6	4	-8
CC(C)C(=O)N1CCN(c2nc(-c3ccccc3)c3c(c2C#N)CC(C)(C)OC3)CC1	-2.8	0.4	1.1%	2	26	1
O=C(NCCCc1ccccc1)C(=O)NCC1OCCN1S(=O)(=O)c1ccccc1 (configuration not stated)	-4.0	-0.9	3.7%	23	5	-11
O=c1cc(C(F)(F)F)[nH]c2c(C(F)(F)F)cccc12	3.7	0.5	?	nt	10	-16
O=C(Cn1c(=O)n(-c2ccccc2Cl)c(=O)c2sc3ccccc3c21)NC1CCCC1	nt	0.0	3.6%	nt	nt	-2
COCC(=O)N1CCC(n2nnc3cc(C(F)(F)F)ccc32)CC1	-1.0	-0.1	-1.1%	nt	0	15
COc1ccc(-c2cc3ccc(O)c(CN4CCC(C)CC4)c3oc2=O)cc1OC	nt	6.7	1.1%	nt	nt	-4
COc1ccccc1NC(=O)CSC1=Nc2ccccc2C2=NC(CC(=O)NCc3ccccc3)C(=O)N12 (configuration not stated)	nt	-0.2	6.0%	nt	nt	-16
COc1cccc(NC(=S)NC2CC3CCCC(C2)N3CC(C)C)c1 (configuration not stated)	-1.4	0.7	-0.4%	0	4	23
CCN(CC)c1ccc(Nc2nc(-c3cccnc3)cs2)cc1	3.6	0.0	4.0%	?	?	-1
COC(=O)Cc1c(C)c2ccc(OCC(=O)c3ccc(OC)c(OC)c3)cc2oc1=O	-12	0.3	5.0%	2	-7	1
COc1ccc2c(C)c(CCC(=O)NCc3ccccc3OC)c(=O)oc2c1	nt	-1.0	1.4%	nt	nt	14
COC(=O)c1ccc(NC(=O)CSC2=Nc3ccccc3C3CC=NN23)cc1 (configuration not stated)	-2.0	0.8	6.6%	3	4	41
CC(=O)N1CCC(=NNc2nc3ccccc3[nH]2)CC1	-7.9	-0.1	-2.5%	-10	-9	19
O=C(CSCc1ccc([N+](=O)[O-])cc1)NC1CCCCCC1	1.9	-0.3	-0.6%	3	-1	3
COc1ccccc1-c1cnc2c(c1)C(=O)N([C@@H](C)CO)C[C@@H](C)[C@H](CN(C)C(=O)c1cccnc1)O2	3.3	0.6	5.3%	11	8	-10
COC(=O)c1ccccc1NC(=O)CCS(=O)(=O)c1ccc(Br)cc1	0.0	0.8	1.3%	nt	-18	0
CN(C)C(=O)CN1CCN(Cc2cn(C)nc2-c2ccc3c(c2)OCCO3)CC1	2.8	0.7	-1.2%	-7	6	0

Single records, from the list above:
COc1ccc2c(C)c(CCC(=O)NCc3ccccc3OC)c(=O)oc2c1 in the list: D2 ag: nt; TRPML1 ag: -1.0; PINK1 expr mod: 1.4%; CtBP-E1A blk: nt; Six1-Eya2 blk: nt; TRPML1 blocker: 14
COC(=O)c1ccc(NC(=O)CSC2=Nc3ccccc3C3CC=NN23)cc1 (configuration not stated) in the list: D2 ag: -2.0; TRPML1 ag: 0.8; PINK1 expr mod: 6.6%; CtBP-E1A blk: 3; Six1-Eya2 blk: 4; TRPML1 blocker: 41

Later entries:
smiles	D2 ag	TRPML1 ag	PINK1 expr mod	CtBP-E1A blk	Six1-Eya2 blk	TRPML1 blocker
COc1ccc(N2CC(NC(=O)c3ccco3)CC2=O)cc1OC (configuration not stated)	nt	1.6	1.4%	nt	nt	6
O=C(NC1CCSc2ccccc21)c1ccc([N+](=O)[O-])cc1 (configuration not stated)	2.0	2.2	0.0%	-5	-4	-8
COc1ccc(OCC(=O)N/N=C/C=C/c2ccccc2)cc1	1.6	-1.1	2.6%	1	-2	-6
CCN(CC)S(=O)(=O)c1ccc2c(c1)nc(SCC(=O)NCC1CCCO1)n2CC (configuration not stated)	-0.8	1.2	4.9%	-2	3	6
CC1(C(=O)NS(=O)(=O)Cc2ccccc2)CCN1C(=O)CCc1ccccc1 (configuration not stated)	3.5	-0.3	1.3%	4	1	nt
Cc1ccc(C)c(S(=O)(=O)N2CCN(C(=O)CCNC(=O)c3ccc(Br)cc3)CC2)c1	-2.6	1.2	-0.3%	3	-8	1
CCOC(=O)c1[nH]c2ccc(OCC)cc2c1NC(=O)CN1CCC2(CC1)OCCO2	-0.3	-0.6	2.2%	-10	4	-18
COc1cc(/C=C/c2nc(C#N)c(NCCc3ccccc3)o2)cc(OC)c1OC	nt	2.4	4.1%	nt	nt	-19
CCOC(=O)c1c(C)[nH]c(C)c1C(=O)COC(=O)/C=C/c1ccc(Cl)cc1	-4.6	-0.1	11%	14	-6	0
O=C(CN1CCCCC1)c1c[nH]c2ccccc12	-2.7	0.7	1.0%	6	1	2
CCOc1ccc(/C=C/C2=CC(C)(C)NC(=S)N2)cc1	0.0	0.0	-0.3%	-10	-4	-7
COc1c(/C=C2\SC(=Nc3ccccc3Cl)NC2=O)cccc1[N+](=O)[O-]	-5.8	nt	4.5%	nt	2	nt
CCCNC(=O)NC(=O)CN1CCCC1c1ccc2c(c1)OCCO2 (configuration not stated)	-0.9	0.3	0.3%	5	-8	30
C=CCOc1c2ccc(C(=O)NCc3ccc(C)cc3)cc2nn1C	-1.0	0.0	1.2%	3	4	6
O=C(CSc1cccc[n+]1[O-])Nc1cc(S(=O)(=O)N2CCOCC2)ccc1N1CCOCC1	0.3	0.0	6.9%	13	3	4
CC(=O)OC1COC(N2CCc3cc(Br)c([N+](=O)[O-])cc32)C(OC(C)=O)C1OC(C)=O (configuration not stated)	-2.0	0.1	1.1%	-1	-12	-3
Cc1nn(-c2ccccc2)nc1C(=O)Oc1cc(C(F)(F)F)nn1-c1ccccc1	-4.5	2.1	-1.3%	-22	-11	-9
CC(C)CNC(=O)C(=O)Nc1c2c(nn1-c1ccc(Cl)cc1)CSC2	nt	1.2	11%	nt	nt	14
CCOC(=O)[C@@H]1[C@H]2COc3cc(OC)ccc3[C@@H]2N2C(=O)N(c3ccc(Br)cc3)C(=O)[C@@]12C	-4.1	-0.4	-0.4%	-4	-8	-4
O=C(O)CCCNc1cc(N2CCN(C(=O)c3ccco3)CC2)c2noc3c2c1C(=O)c1ccccc1-3	13	0.8	?	?	?	12
Cc1cc(C)cc(NC(=O)COC(=O)CC2CCCC2)c1	-0.4	0.5	1.3%	-12	16	-8
COc1ccccc1Nc1nc(N)nc(CSC(=S)N2CCN(c3ccccc3)CC2)n1	-6.2	0.4	1.4%	-11	-19	20
O=C(O)C/C(=C\c1cc2c(cc1Br)OCO2)c1nc2ccccc2s1	-2.8	0.9	-3.4%	-21	-22	-10
C=CCN(C(=O)CCC(=O)Nc1cc(C)on1)C(C(=O)NC(C)(C)CC)c1cccc(OC)c1OC (configuration not stated)	-3.3	0.0	-2.1%	-2	8	37
COC(=O)c1cccc(N(CC(=O)NCC2CCCO2)C(=O)CCC(=O)Nc2cc(C)on2)c1 (configuration not stated)	3.5	-0.6	1.6%	1	0	-8
CCc1ccc(CN(C)C(=O)c2cc(COc3cc(C)c(Cl)c(C)c3)on2)nc1	5.1	-0.8	?	7	0	-5
Cc1c(C(=O)N2CCC2)oc2c(F)cccc12	-3.2	0.5	-0.8%	-3	-8	6
CC(C)NC1(C(N)=O)CCN(Cc2ccccc2)CC1	0.4	0.9	2.3%	6	8	-14
CC(=O)c1cccc(NC(=O)CN2CCN(Cc3ccccc3)CC2)c1	-5.3	0.0	-0.4%	1	3	7
CC1(c2ccccc2)CC2CC(c3ccccc3)N1O2 (configuration not stated)	-1.0	0.5	-0.2%[38.3 µM]	13	5	5
C=CCn1c(SCC(=O)/C(C#N)=C(\C)N)nc2sc(C)c(C)c2c1=O	-1.0	-0.6	9.6%	-2	-4	3
CCOc1cccc2c1OC1(C)CC2NC(=O)N1c1cccc(C(=O)N2CCN(c3ccccn3)CC2)c1 (configuration not stated)	-3.5	-1.1	-0.2%	-2	-1	5
COc1cc(/C=N/NC(=O)c2cccnc2)ccc1OC(=O)c1cccc(Br)c1	3.4	0.9	4.8%	-3	-7	-7
Cc1ccc(S(=O)(=O)N2CCC(C(=O)NNC(=O)c3cccnc3)CC2)cc1	-3.3	1.5	0.0%	-4	2	8
CC1=C(C(=O)Nc2ccccn2)C(c2ccc(Cl)cc2)NC(=S)N1 (configuration not stated)	-1.2	0.1	3.7%	9	0	10
CCC1CCC(C(=O)NC(C(=O)Nc2ccc3c(c2)OCCO3)C(C)C)CC1 (configuration not stated)	-1.2	-0.2	?	0	1	-17
Cc1noc(C)c1NC(=O)Nc1cccc2c1O[C@H](CN(C)S(=O)(=O)c1c(C)noc1C)[C@@H](C)CN([C@H](C)CO)C2=O	-1.2	-0.1	0.6%	nt	-2	-8
Cn1cc(CNC(=O)COc2ccc(Cl)cc2Cl)cn1	0.8	0.1	-2.7%	2	3	16
Cc1c(N=c2scc(-c3ccccc3)n2CCO)c(=O)n(-c2ccccc2)n1C	0.5	0.9	0.9%	nt	4	8
CCc1c(C)nc(Nc2nc(C)c3ccc(OC)cc3n2)[nH]c1=O	2.5	0.9	nt	7	?	-5
CCCCC1=CC2=CC(=O)C(C)(OC(=O)CC)C(=O)C2=CN1C(CO)CO (configuration not stated)	8.7	0.3	4.0%	10	5	8
